S aureus helic: S. aureus DNA helicase inhibition | inhibition, %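 (tested at about 80 µM)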 | 120,000 compounds, 0.05% hits | AID 485395 | purified S. aureus helicase, fluorescence unwinding assay; about half of the hits fall short of the stated cut;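 active = both duplicates at 50% or more, or one of them with a favoured structure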;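 also: 0% = mean of negative control wells and 100% = mean of positive control wells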
MgrA DNA FP: alters Staphylococcus aureus MgrA binding to DNA | fluorescence polarization | inhibition, %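 (about 10 µg/mL by stock and volumes)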 | 84,000 compounds, 0.13% hits | AID 602314;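 active = above 50% in either of two replicates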;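 also: 0% = protein plus DNA without compound and 100% = DNA alone without protein; higher means less MgrA bound to DNA so lower polarization; one replicate is shown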
Numbers without * were called inactive; . = not tested or not shown.

The opening 4 entries, to show the layout:
SMILES	S aureus helic	MgrA DNA FP
O=C(NCc1ccccc1Cl)c1nc2c(nnn2CC2CCCO2)c(=O)[nH]1 (stereo not given)	4.0	.
Nc1nnc(CSCc2ccccc2)s1	-8.0	2.9
C=CCn1c(=NC(=O)c2ccco2)sc2cccc(OCC)c21	10.0	.
O=C(O)CCC(=O)c1ccc2c(c1)CCCC2	-17.0	.

Results, from the start:
SMILES	S aureus helic	MgrA DNA FP
O=C(NCc1ccccc1Cl)c1nc2c(nnn2CC2CCCO2)c(=O)[nH]1 (stereo not given)	4.0	.
Nc1nnc(CSCc2ccccc2)s1	-8.0	2.9
C=CCn1c(=NC(=O)c2ccco2)sc2cccc(OCC)c21	10.0	.
O=C(O)CCC(=O)c1ccc2c(c1)CCCC2	-17.0	.
CCc1ccc(/C=C2\Sc3ccccc3N(CC(=O)O)C2=O)cc1	9.0	3.2
CC(=O)N(Cc1cccnc1)Cc1cc2cc3c(cc2n2nnnc12)OCO3	3.0	14.0
COCC(C)NC(=O)C1CC(c2ccc(F)cc2)=NO1 (stereo not given)	13.0	.
S=c1[nH]nc(Cc2ccsc2)n1Cc1ccccc1	.	-2.2
CN1C(=O)CC(N2CCN(Cc3ccccc3)CC2)C1=O (stereo not given)	6.0	3.2
Nc1nc2cc(S(=O)(=O)N3CCOCC3)ccc2o1	4.0	.
CC(C)COC(=O)COc1ccc2c(=O)c(-c3ccccc3)coc2c1	-11.0	.
O=C(Nc1ccccc1)C(=S)NC1CCCC1	5.0	4.4
CCOC(=O)C1=C(O)/C(=C/c2cccs2)SC1=NC(=O)c1ccc(C)cc1	-5.0	1.6
O=c1c(-c2ccccc2)c(O)c2cccc3c2n1CCC3	.	-0.9
NC(=O)c1sccc1Cl	16.0	.
Cc1ccc(N2CC34C=CC(O3)C(C(=O)O)C4C2=O)cc1 (stereo not given)	5.0	-0.5
NC(=S)c1cnn2c(C(F)(F)F)cc(C(F)(F)F)nc12	.	0.5
O=C(O)c1ccc(NC(=O)C2CC(=O)N(Cc3ccccc3)C(=Nc3ccc(Cl)cc3)S2)cc1 (stereo not given)	.	5.0
O=C1CC(c2ccccc2F)C2=C(CC(c3ccc(F)cc3)CC2=O)N1 (stereo not given)	11.0	-0.2
O=C(O)c1ccccc1SCc1ccc2c(c1)OCO2	1.0	.
NC(CC(=O)O)c1ccc(Cl)cc1 (stereo not given)	.	-0.7
COc1ccc(OCCc2nnc(N)s2)cc1	13.0	-1.7
CN(C)c1ccc(NS(=O)(=O)c2ccc(-c3csnn3)cc2)cc1	.	0.0
Cc1cc(S(=O)(=O)NCCC2=CCCCC2)ccc1-n1cnnn1	-6.0	1.3
Cc1ccccc1/C=N/NC(=O)Cc1cn2ccsc2n1	3.0	.
Cc1ccc(CNC(=O)c2ccc3nc[nH]c3c2)cc1	3.0	0.2
Nc1cc(N)c2cc(-c3ccccc3)oc2c1	-29.0	.
c1ccc(Nc2ccc(-n3ccnc3)nn2)cc1	12.0	-0.1
CN(C)c1ccc(C(=O)N/N=C/c2cc(Br)cc(Br)c2O)cc1	.	2.1
CCCCC(=O)N1CCN(c2ccc(C(=O)CC)cc2F)CC1	-30.0	.
CN1CCN(C(=O)CNS(=O)(=O)c2ccccc2)CC1	6.0	-3.1
O=S(=O)(c1ccc(-c2ccc(S(=O)(=O)N3CCCC3)s2)s1)N1CCCC1	.	0.9
O=C1c2ccccc2NC2(C(=O)N(Cc3ccccc3)c3ccccc32)N1C1CC1 (stereo not given)	7.0	.
CC1CCCCN1C(=O)CSc1nc2ccccc2c(=O)[nH]1 (stereo not given)	4.0	-0.3
CCOC(=O)c1cccc(NC(=O)Cn2ncc3c(C)n(Cc4ccc(F)cc4)c(C)c3c2=O)c1	10.0	1.6
ONC(=Nc1ccccc1)c1cccnc1	-11.0	.
CCCn1c2ccccc2c2nnc(SC(CC)C(=O)Nc3cc(C)on3)nc21 (stereo not given)	12.0	.
O=C(Nc1ccc(OC(F)(F)F)cc1)C1CCc2ccccc2O1 (stereo not given)	.	-1.6
CCN(CC)CCN(C)Cc1c(F)cccc1F	13.0	-4.3
Clc1ccccc1OCc1nc(-c2cccs2)no1	10.0	.

Copied from the list:
ONC(=Nc1ccccc1)c1cccnc1 in S aureus helic: -11.0
CCOC(=O)c1cccc(NC(=O)Cn2ncc3c(C)n(Cc4ccc(F)cc4)c(C)c3c2=O)c1 in S aureus helic: 10.0

Other entries follow.
SMILES	S aureus helic	MgrA DNA FP
O=C(O)CCC(=O)Nc1ccc(-c2cn3ccccc3n2)cc1	8.0	-4.2
O=C(O)CN1C(=O)/C(=C/c2ccccc2)SC1=S	-3.0	.
C=CCNC(=O)c1ccccc1NC(=O)c1ccccc1NS(C)(=O)=O	-2.0	-2.1
COCCNc1nnc(SCC(=O)c2cc(C)n(-c3ccc4c(c3)OCO4)c2C)s1	-1.0	.
COc1cc([C@@H]2c3cc4c(cc3C(O[C@@H]3O[C@@H]5CO[C@@H](c6cccs6)OC5[C@H](O)[C@H]3O)C3COC(=O)[C@@H]32)OCO4)cc(OC)c1O (stereo not given in full)	.	2.9
O=S(=O)(Nc1n[nH]c(C(F)(F)F)n1)c1ccccc1	-9.0	.
CN(CC(O)COCC1COc2ccccc2O1)C1CCCCC1 (stereo not given)	0.0	.
O=C(c1cc2ccc3cccnc3c2[nH]1)N1CCN(c2ccc(F)cc2)CC1	-18.0	.
N=C(N)Sc1cnc2ccccc2n1	.	3.2
CCOc1ccc(-c2cccc(NC(=O)Cc3ccc(OC)c(OC)c3)c2)nn1	0.0	.
S=c1nccc(-c2ccc(-c3cccs3)s2)[nH]1	.	10.3
CCc1cc2c(cc(C(=O)OC)n2Cc2cccc(OC)c2)s1	-1.0	.
COCCN1C(=O)/C(=C/c2cn(-c3ccccc3)nc2-c2ccccc2)SC1=S	-2.0	.
O=c1cc(CSc2nnc(Nc3ccccc3)s2)nc2sccn12	20.0	.
CC(=O)Oc1ccc(N2C(=O)c3ccc(-c4nc5ccccc5c(=O)o4)cc3C2=O)cc1	6.0	.
O=C(Nc1ccccc1)C1CC2c3ccccc3C1c1ccccc12 (stereo not given)	-6.0	-1.4
COc1cc(OC)cc(C(=O)Nc2nc3ccc4sc(C)nc4c3s2)c1	19.0	.
Nc1ccc2nc(SCC(=O)O)sc2c1	16.0	11.0
COc1ccc(-c2nc3ccccc3n2C)cc1OC	22.0	.
COc1ccc(N=Cc2nc(-c3ccc(Br)cc3)oc2O)c([N+](=O)[O-])c1	.	-0.8
FC(F)C(F)(F)COC1OCCOC1OCC(F)(F)C(F)F (stereo not given)	21.0	.
O=C1NN=C2c3ccccc3CCC12 (stereo not given)	1.0	-1.6
O=C(NCCc1c[nH]c2ccccc12)c1ccc2c(=O)n3c(nc2c1)CCCCC3	4.0	.
COc1ccc(-c2nc(C#N)c(N3CCCCC3)o2)cc1	-22.0	.
COC1CCCC(C(=O)Nn2c(C3CC3)nc3ccccc3c2=O)C1 (stereo not given)	5.0	-3.4
Cc1csc(=NC(C)C)n1/N=C/C(C)c1ccccc1 (stereo not given)	-7.0	.
Cc1ncc(CO)c(/C=N/N=C2\CC3CCC2(C)C3(C)C)c1O (stereo not given)	8.0	.
CC1(C)CC(=O)C2=C(C1)NC1=C(C2)C(=O)CC(C)(C)C1	-2.0	.
CCc1nc2ccccc2n1CC(=O)Nc1ccccc1C#N	-20.0	1.6
CC(=O)Nc1ccc(-c2nc3cc(Cl)ccc3c(=O)o2)cc1	4.0	1.7
Cc1cc(C(=O)OCc2ccc(Br)cc2)c(C)o1	-9.0	.
COc1ccc(C(=O)Nc2ccc3nc(N4CCN(C)CC4)cc(C)c3c2)c(OC)c1	-21.0	.
OC(CN1CCN(CC(O)C(F)(F)F)CC1)C(F)(F)F (stereo not given)	.	-0.6
Nc1cc2c(cc1C(=O)O)OCO2	-7.0	.
O=C(O)/C=C/c1ccc(-n2ccnc2)cc1	-13.0	.
O=C(N/N=C\c1ccc(F)cc1)C(c1ccccc1)N1CCOCC1 (stereo not given)	-6.0	-3.2
COc1cc2c(cc1OC)C(C)N(C(=O)CCCC(=O)O)CC2 (stereo not given)	.	1.6
Cc1nc(SCCO)c2c3c(sc2n1)CCCC3	-23.0	.
Cc1c(C(=O)N(C)C)sc2c1c(=O)n(Cc1ccccc1)c(=O)n2Cc1ccccc1C#N	5.0	-0.5
N#Cc1cnn2cc(CCCO)c(C(F)(F)F)nc12	.	-0.7

Quoted from the results shown (six entries):
SMILES	S aureus helic	MgrA DNA FP
O=C(O)/C=C/c1ccc(-n2ccnc2)cc1	-13.0	.
O=C(N/N=C\c1ccc(F)cc1)C(c1ccccc1)N1CCOCC1 (stereo not given)	-6.0	-3.2
COc1cc2c(cc1OC)C(C)N(C(=O)CCCC(=O)O)CC2 (stereo not given)	.	1.6
Cc1nc(SCCO)c2c3c(sc2n1)CCCC3	-23.0	.
Cc1c(C(=O)N(C)C)sc2c1c(=O)n(Cc1ccccc1)c(=O)n2Cc1ccccc1C#N	5.0	-0.5
N#Cc1cnn2cc(CCCO)c(C(F)(F)F)nc12	.	-0.7

New compounds follow.
SMILES	S aureus helic	MgrA DNA FP
COc1ccc2oc(=O)c(C(=O)NC3CCCC3)cc2c1	10.0	0.4
CC(=O)N=Nc1c2[nH]c3ccccc3nc-2c2ccccc12	17.0	1.6
O=S(=O)(/C=C/c1ccccc1)N1CCN(Cc2coc(-c3cccs3)n2)CC1	4.0	.
Cc1cc(C)c(C(=O)CN2C(=O)NC(CC(C)C)C2=O)cc1C (stereo not given)	7.0	.
NC(=O)N/N=C/c1ccc(N2CCOCC2)cc1	-6.0	.
Cc1cc(C)nc(N(C#N)Cc2ccccc2)n1	-7.0	0.5
Cc1ccc(-c2csc(-c3nnn(-c4ccc(C)c(C)c4)c3N)n2)cc1	-10.0	.
N#Cc1ccc(Cl)cc1NC(=O)CSc1nnc(-c2ccc(OC(F)F)cc2)n1N	-11.0	.
CCCN1C(=O)C[n+]2ccccc2C1C(=O)Nc1ccccc1C (stereo not given)	13.0	-6.4
Cc1nc2nc(CC(=O)N3CCC(C)CC3)nn2c(C)c1Cl	-3.0	-1.9
O=c1c(C2CCCCC2)c(O)c2cccc3c2n1CCC3	.	5.6
Clc1ccc(OCCN2CCCCC2)cc1	-8.0	.
O=C1ON=C(CSc2ccccc2)/C1=C/c1ccc(Cl)cc1	.	15.6
COc1ccc2c(c1)SC1=NC(=O)C(Cc3ccccc3)C(=O)N12 (stereo not given)	-8.0	2.5
O=C1CC(Cc2ccccc2)C(=O)N1c1ccc(Cl)cc1 (stereo not given)	16.0	4.2
c1ccc(COc2ccc(Oc3ncnc4c3oc3ccccc34)cc2)cc1	-13.0	.
CCOC(=O)CSc1nc2c([nH]c3ccccc32)c(=O)n1-c1ccc(F)cc1	-14.0	.
O=C(NC(=S)Nc1c(Cl)cccc1Cl)c1ccccc1	.	-1.0
CCN(C(=O)c1ccc2c(c1)OCO2)C12CC3CC(CC(C3)C1)C2	3.0	.
Cc1ccc(S(=O)(=O)N2CCCN(C)CC2)cc1	1.0	-2.0
CN(C)/N=C/c1ccc(OC(=O)c2ccc(Br)cc2)cc1	-14.0	0.9
CC(C)(C)OC(=O)NCCNc1ccc(C(F)(F)F)cc1N1C(=O)CC2(CCCC2)C1=O	.	2.7
O=C(Nc1nc(-c2ccccc2)cs1)c1cc(=O)c2ccccc2o1	0.0	.
CC(C)(C)c1cc(NC(=O)Nc2ccc(Cl)cc2Cl)no1	-18.0	.
O=C(NN1CC(=O)N(C(c2ccccc2)c2ccccc2)C1=O)c1ccncc1	-3.0	-1.4
Cc1ccc(C(=O)N/C(=C\c2ccco2)C(=O)N2CCCC2)cc1	17.0	-1.9
COC(=O)c1sc2ccccc2c1NC(=O)c1ccc(S(=O)(=O)N(C)c2ccccc2)cc1	17.0	2.0
CC1(C)Cc2c(sc(NC(=O)C(c3ccccc3)c3ccccc3)c2C#N)CO1	-5.0	2.7
O=C(c1cc(F)cc2c1OCOC2)N1CCN(C2c3ccccc3-c3ccccc32)CC1	-19.0	.
CCCCC1CCC(C(=O)N(Cc2sccc2C)C2CCS(=O)(=O)C2)CC1 (stereo not given)	4.0	-0.3
CCCc1cc(=O)[nH]c(/N=C(\N)Nc2cc(Cl)cc(Cl)c2)n1	.	-1.4
Cc1ccc(S(=O)(=O)N2CCC(C(=O)OC(C)C(=O)NCc3ccc4c(c3)OCO4)CC2)cc1 (stereo not given)	-6.0	.
CN(C)c1ccc(-c2ncnn2-c2ccccc2)cc1	9.0	.
CC(C)CNC(=O)C1C2C=CC(C2)C1C(=O)O (stereo not given)	0.0	0.9
CC(O)CNc1ncnc2scc(-c3ccccc3)c12 (stereo not given)	.	-0.9
CN(c1ccnc(C(=O)N2CCOCC2)c1)S(=O)(=O)c1ccccc1	-7.0	.
O=C(c1cccnc1)N1C(=O)c2cccc3c(S(=O)(=O)N4CCCCC4)ccc1c23	7.0	.
O=C1CCCCCN1Cc1nnc(SCc2cnc(-c3ccccc3)s2)n1-c1ccccn1	-4.0	.
O=C(NC1CCCCC1)c1nnc(Cc2cccc(F)c2)o1	10.0	.
N#Cc1c(N2CCOCC2)nsc1-c1ccccc1Cl	.	-0.2
CCC(Sc1nc2cc3c(cc2c(=O)n1Cc1ccco1)OCO3)C(=O)NCc1ccc(C)cc1 (stereo not given)	12.0	3.5
COc1cccc(OC)c1C(=O)N[C@@H]1C(=O)N2[C@@H]1SC(C)(C)[C@@H]2C(=O)O	.	1.1
O=C(CC(c1ccc(Cl)cc1)S(=O)(=O)c1ccccc1)c1ccco1 (stereo not given)	15.0	-0.3
O=C(CCS(=O)(=O)c1ccccc1)OCc1csc(-c2ccccc2)n1	-10.0	.
NC(=S)Nn1c(CCC(=O)O)ccc1-c1cccs1	3.0	6.6
O=C(c1cnc(NS(=O)(=O)c2ccccc2)nc1)N1CCOCC1	-3.0	-4.3
Cc1ccc(S(=O)(=O)N2CCN(CC(=O)N3N=C4/C(=C/c5cccs5)CCCC4C3c3cccs3)CC2)cc1 (stereo not given)	-7.0	.
COC(=O)c1cc(S(=O)(=O)NCc2cccs2)c[nH]1	-10.0	.
CSc1sc(-c2ccn[nH]2)c(-c2ccccc2)c1C#N	.	-1.1

Screens as filed in PubChem BioAssay.

Only part of the results is shown; rates above refer to the full screens.
